Screens: PubChem, National Center for Advancing Translational Sciences (NCATS)
Methyltransferases: Primary Screen for Target Class Profiling of Small Molecule Inhibitors of Methyltransferases. purified enzyme, MTase-Glo SAH luminescence; hits give low values. 3.9% of 25,000 active. calls only at 40 µM; active = -50% or lower on at least one of six enzymes; inconclusive = the cases between; inactive = as a rule above -30% on all six;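 also: enzymes were COMT GAMT GNMT HNMT NNMT and PNMT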
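Each enzyme was assayed with SAM and its substrate. SAH formation detected by MTase-Glo luminescence; single-point 40 uM screen[…].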
Calls only; i = inactive; ? = inconclusive; + = active, no number. % is scaled to controls: 0 for no effect and ±100 for the full control effect. A portion of the library; the hit share may differ from the screen's.

Preview:
SMILES	Methyltransferases
CC1CCC(NC(=O)C2(C)Cn3c(cc4sccc43)C(=O)N2Cc2ccco2)CC1 (configuration not stated)	i
CCC(C)/C=C(C)/C=C/C1=CC2=CC(=O)C3(C)OC(C)(O)C(C(=O)OC)C3C2=CO1 (configuration not stated)	i
O=C1NCc2ccccc2CC12CCN(Cc1ccc(F)cc1)CC2	i
CC1(C(=O)NC2CCCCC2)Cn2c(ccc2-c2ccccc2)C(=O)N1Cc1ccccc1 (configuration not stated)	i
O[C@H]1[C@H](NCc2ccc(F)cc2)[C@H]2CO[C@H](O2)[C@@H]1N1CCC(Cc2ccccc2)CC1	i
CCCn1c(=O)c2ccc(C(=O)NC3CCCCC3)cc2n2c(SCc3ccccc3)nnc12	i

All compounds of this part, from the start:
SMILES	Methyltransferases
CC1CCC(NC(=O)C2(C)Cn3c(cc4sccc43)C(=O)N2Cc2ccco2)CC1 (configuration not stated)	i
CCC(C)/C=C(C)/C=C/C1=CC2=CC(=O)C3(C)OC(C)(O)C(C(=O)OC)C3C2=CO1 (configuration not stated)	i
O=C1NCc2ccccc2CC12CCN(Cc1ccc(F)cc1)CC2	i
CC1(C(=O)NC2CCCCC2)Cn2c(ccc2-c2ccccc2)C(=O)N1Cc1ccccc1 (configuration not stated)	i
O[C@H]1[C@H](NCc2ccc(F)cc2)[C@H]2CO[C@H](O2)[C@@H]1N1CCC(Cc2ccccc2)CC1	i
CCCn1c(=O)c2ccc(C(=O)NC3CCCCC3)cc2n2c(SCc3ccccc3)nnc12	i
CCCNC(=O)Cn1nc2nc(Nc3ccc(F)cc3)ccn2c1=O	i
COc1ccccc1CNC(=O)C1(C)Cn2c(cc3ccccc32)C(=O)N1Cc1cccs1 (configuration not stated)	i
CC(c1n[nH]c(=O)n1CCC(=O)O)n1cccn1 (configuration not stated)	i
CCC(=O)NCC1Cn2cccc2C(=O)N1Cc1ccccc1 (configuration not stated)	i
COCC1OC(OC(C)(C)C2CCC3(C)C=C(C4CCC5C4(C)CC(O)C4OC(C(C)(C)O)CCC45C)CCC3O2)C(NC(C)=O)C(O)C1O (configuration not stated)	i
CC1(C(=O)NC2CCCCCC2)Cn2nc(-c3ccco3)cc2C(=O)N1Cc1ccco1 (configuration not stated)	i
CC(=O)c1cc(C(=O)NCc2c(C)ncc3c2CCNC3)[nH]n1	i
Cc1ccc(C(=O)N2CC[C@H](N3CCN(C)CC3)[C@H](CCCO)C2)cc1C	i
CC1(C(=O)NC2CCCCCC2)Cn2c(c(-n3cccc3)c3cc(F)ccc32)C(=O)N1Cc1cccs1 (configuration not stated)	i
O=c1n(CCN2CCCN([S+](=O)([O-])c3cccc(C(F)(F)F)c3)CC2)nc2n1CCCC2	i
COc1ccc(CN2C(=O)c3ccc(-c4ccccc4)n3CC2(C)C(=O)NC2CCCCC2)cc1 (configuration not stated)	i
COc1ccccc1N1CCN(CCCCNC(=O)c2ccc3ccccc3c2)CC1	i
Cc1ccc(C(=O)N2CCCC2C(=O)N2CCCC2c2nc3ccncc3[nH]2)cc1 (configuration not stated)	i
Cc1ccc(CNC(=O)N2CCn3c(C)ccc3C2C(C)C)cc1 (configuration not stated)	i
CC(=O)N1CCC(N2CCC[C@H]2c2nc(-c3ccc(-c4ccncc4)nc3)no2)CC1	i
CCCC1CCC(c2ccc(C(=O)COC(=O)C(Cc3c[nH]c4ccccc34)NC(=O)c3ccc(Cl)cc3)cc2)CC1 (configuration not stated)	i
Cn1c(CN2CCOCC2)nnc1C1CCCN(C(=O)c2cc[nH]c2)C1 (configuration not stated)	i
Cc1ccc(CNC(=O)C2(C)Cn3nc(C(=O)NCc4cccc(C)c4)cc3C(=O)N2C)cc1 (configuration not stated)	i
CC(NC(=O)c1cc2n(n1)CC(C)(C(=O)NC1CCCCC1)N(C)C2=O)c1ccccc1 (configuration not stated)	i

Additional entries
SMILES	Methyltransferases
O=c1cc(-c2cccc(O)c2)oc2c(O)c(O)ccc12	?
Cc1ccc(NC(=O)N2CCn3cccc3C2Cc2ccccc2)cc1 (configuration not stated)	i
C=Cc1ccc(Cn2nc3n(CCC)c(=O)c4ccc(C(=O)NC(C)C)cc4n3c2=O)cc1	i
Cc1ccc(-c2noc(CCCC(=O)N3CCC(CCOc4ccccc4F)C3)n2)cc1 (configuration not stated)	i
CC1(C(=O)NC2CCCCCC2)Cc2ccccc2C(=O)N1Cc1cccs1 (configuration not stated)	i
O=c1cc(CN2CCOCC2)occ1OCCCCCSc1ccnc2cc(C(F)(F)F)ccc12	?
C[C@@H]1O[C@@H](O[C@H]2[C@@H](OC(=O)[C@]34CCC(C)(C)CC3C3=CCC5[C@@]6(C)C[C@H](O)[C@H](O[C@@H]7O[C@H](C(=O)O)[C@@H](O)[C@H](O)[C@H]7O)[C@@](C)(C(=O)O)C6CC[C@@]5(C)[C@]3(C)CC4)OC[C@H](O)[C@@H]2O)[C@H](O)[C@H](O)[C@H]1O[C@@H]1OC[C@@H](O)[C@H](O)[C@H]1O (some centres not stated)	i
Cc1ccc(Cl)cc1N1CCN(S(=O)(=O)c2cc3[nH]c(=O)[nH]c3cc2Br)CC1	i
CCCn1c(=O)c2ccc(Cl)cc2n2c(=O)n(CC(=O)c3ccc(C)cc3C)nc12	i
CC1CC(=O)C2=C(CCC3(O)C(O)c4c(O)cccc4C(=O)C23O)C1 (configuration not stated)	i
C=C(C(=O)O)[C@H]1C[C@]2(C)C(=O)CC[C@]23O[C@H]1C[C@@H]3C	+
CCOc1ccccc1CNC(=O)c1ncn2c1C(=O)N(CC)C(C)(C(=O)NC1CCCC1)C2 (configuration not stated)	i
CCCN1CCN(CCCNC(=O)c2cc3n(n2)CC(C)(C(=O)NCc2ccc(F)cc2)N(C)C3=O)CC1 (configuration not stated)	i
O=C1NC(=O)/C(=C/c2ccc3c(c2)OC(F)(F)O3)S1	i
COC(C)c1nc(C2CCOCC2)nn1Cc1ccc2c(c1)OCO2 (configuration not stated)	i
O=C(O)C1=CCNCC1	i
COc1cc(OC)cc(N2C(=O)CSc3c(c4ccccc4n3C)C2C(=O)NCc2ccc(F)cc2)c1 (configuration not stated)	i
COc1cccc(CNC(=O)C(C)n2ccc3cc(S(=O)(=O)N4CCCC4)ccc32)c1OC (configuration not stated)	i
Cc1ccccc1CN1C(=O)c2cc3sccc3n2CC1(C)C(=O)NC1CCC(C)CC1 (configuration not stated)	i
COC[C@H]1C[C@@H](NC2CCN(C(C)=O)CC2)[C@H](O)[C@@H]1O	i
CC(C)c1ccc(CN2CCC(CNS(=O)(=O)C3CC3)C2)cc1 (configuration not stated)	i
Cc1nc(N2CCC(NCCc3n[nH]c(=O)[nH]3)CC2)c2ccsc2n1	i
COc1ccc(OC)c(S(=O)(=O)N2CCCC(Cc3ncc(C)n3C(C)C)C2)c1 (configuration not stated)	i
COc1ccc(NC(=O)N2CCn3c(C)ccc3C2C(C)C)cc1 (configuration not stated)	i
Cc1cnc(C2CCC2)n1CC1CCN(C(=O)COCc2ccccc2)C1 (configuration not stated)	i

Other results
SMILES	Methyltransferases
Cc1ccc(NC(=O)Cn2nc3n(CC(C)C)c(=O)c4ccc(C(=O)NC(C)C)cc4n3c2=O)c(C)c1	i
Cc1cc(C)cc(N2C(=O)c3cc4sccc4n3CC2(C)C(=O)NC2CCC(C)CC2)c1 (configuration not stated)	i
CCNc1ncc(C(=O)N[C@H](c2cnn(C)c2)C2CC(O)C2)cn1 (some centres not stated)	i
O=C(NCc1cccs1)c1cc(C2CC2)nc2onc(C3CCCNC3)c12 (configuration not stated)	i
CN[C@@H]1[C@@H](O)[C@@H](O[C@@H]2[C@@H](O)[C@H](O[C@H]3O[C@H]([C@@H](C)NC)CC[C@H]3N)[C@@H](N)C[C@H]2N)OC[C@]1(C)O	?
CC1(C(=O)NC2CCCCC2)Cn2c(nc3ccccc32)C(=O)N1Cc1ccccc1Br (configuration not stated)	i
CN1CCCCCCN(C(=O)c2ccc3ccccc3n2)[C@H]2CCC[C@H]2C1=O	i
C=C(CO)C12OC1C1(C)C(=CC2=O)C(O)C(O)CC1C (configuration not stated)	i
CC1(C)CC(NC(=O)C(=O)Nc2ccc(Cl)cc2)CC(C)(C)N1	i
CN(C)CCCNc1c2ccccc2nc2c1[nH]c1ccccc12	?
COc1ccccc1CCN1C(=O)c2cc3ccccc3n2CC1(C)C(=O)NCCC(C)C (configuration not stated)	i
CCCn1c(=O)c2ccccc2n2c(=O)n(CC(=O)Nc3cc(OC)cc(OC)c3)nc12	i
C=C1CC[C@@H]2[C@](C)(CO[C@@H]3O[C@H](CO)[C@@H](O)[C@H](O)[C@H]3O)[C@H](O)CC[C@@]2(C)[C@@H]1C/C=C1/C(=O)OC[C@H]1O	i
COC(=O)c1nc(NC(=O)CC[C@H]2NC(=O)c3ccccc3NC2=O)sc1C	i
CC(C)c1cc2n(n1)CC(C)(C(=O)NC1CCCCC1)N(c1cccc(Cl)c1)C2=O (configuration not stated)	i
COc1cccc(C(=O)N2CCCN(CCn3nc4n(c3=O)CCCC4)CC2)c1	i
O=C(CC1CCOCC1)N1CCN(c2ncccn2)CC1	i
COc1cccc(CNC(=O)Cn2nc3n(CC(C)C)c(=O)c4ccccc4n3c2=O)c1	i
CCCn1c(=O)c2ccccc2n2c(SCC(=O)Nc3ccccc3OC)nnc12	i
CCc1nc2c(NC(=O)c3ccc(F)c(Cl)c3)cccn2n1	i
CCN1CCN(C(=O)C2Cn3cccc3C(=O)N2C)CC1 (configuration not stated)	i
CCOc1ccccc1CN1C(=O)c2cc(C3CC3)nn2CC1(C)C(=O)NC1CCCCCC1 (configuration not stated)	i
O=C(CCC1CCCN(S(=O)(=O)c2ccccc2F)C1)NCCCN1CCCC1=O (configuration not stated)	i
CN(C)c1nc(-c2ccncc2)nc2c1CCN(C(=O)c1cc(=O)[nH][nH]1)C2	i
COc1cccc(Cn2nc3n(C)c(=O)c4ccc(C(=O)NCC(C)C)cc4n3c2=O)c1	i

The closing 4 records of the part before lead into the next.
SMILES	Methyltransferases
CCOc1ccccc1CN1C(=O)c2cc(C3CC3)nn2CC1(C)C(=O)NC1CCCCCC1 (configuration not stated)	i
O=C(CCC1CCCN(S(=O)(=O)c2ccccc2F)C1)NCCCN1CCCC1=O (configuration not stated)	i
CN(C)c1nc(-c2ccncc2)nc2c1CCN(C(=O)c1cc(=O)[nH][nH]1)C2	i
COc1cccc(Cn2nc3n(C)c(=O)c4ccc(C(=O)NCC(C)C)cc4n3c2=O)c1	i
CC(C)CCn1c(=O)c2ccccc2n2c(=O)n(Cc3ccc(Cl)cc3)nc12	i
CCOC(=O)c1cc2n(n1)CC(C)(C(=O)NCc1ccccc1)N(Cc1cccc(CC)c1)C2=O (configuration not stated)	i
C[C@@H]1CN(Cc2cc(C(N)=O)oc2C(C)(C)C)CC[C@@]1(O)C1CCC1	i
CCN1CCC[C@@H]1CNC(=O)c1ccc2c(c1)NC(=O)/C(=C/c1ccccc1F)S2	+
COc1ccccc1-c1[nH]nc2ncc(C(=O)NCC3CC3)nc12	+
CC(CN1C(=O)c2cc3sccc3n2CC1(C)C(=O)NC1CCCCCC1)c1ccccc1 (configuration not stated)	i
c1ccc(-c2nc(CC3CCCNC3)no2)nc1 (configuration not stated)	i
CN(C)C[C@@H]1CN(C)C[C@H]1NC(=O)NCc1ccc(OC(F)(F)F)cc1	i
C/C=C(\C)C(=O)OCC1OC(OC2OC(CO)C(O)C(O)C2O)C(O)C(O)C1O (configuration not stated)	i
CCN1CCN(CC(O)COc2cccc(CNCc3cnn(CC)c3)c2)CC1 (configuration not stated)	i
CC1Oc2ccc(NC(=O)CC(C)(C)C)cc2CN(CCc2ccccc2)C1=O (configuration not stated)	i
CCn1nccc1C(=O)N1CCC(Nc2nccnc2OC)CC1	i
CCCC(=O)O[C@@H]1[C@@H]2[C@@H](OC(C)=O)[C@]3(C)C(=O)[C@H]4[C@@H](OC(C)=O)C(C)(C)C[C@H]4[C@]3(C)C(=O)[C@@]2(OC(C)=O)C[C@@H]1C	i
Cc1ccc(CNS(=O)(=O)c2ccc3[nH]c(=O)[nH]c3c2)cc1	i
Cc1nn(C)c(C)c1CNC(=O)C1CC(=O)N(c2n[nH]c3cccc(F)c23)C1 (configuration not stated)	i
Cc1ccc(Nc2ccnc(N3CCCN([S+](=O)([O-])c4ccc(C)cc4)C3)n2)cc1	i
COc1ccc(OC)c(N2C(=O)CSc3c(c4ccccc4n3C)C2C(=O)NCc2ccc(F)cc2)c1 (configuration not stated)	i
CCC(C)NC(=O)c1ccc2c(=O)n(CC(C)C)c3nn(CC(=O)NC4CCCCC4)c(=O)n3c2c1 (configuration not stated)	i
CN1CCN(C2Cc3ccccc3Sc3ccc(Cl)cc32)CC1 (configuration not stated)	?
C/C(=C\CCC(C)CCO)C(=O)OC[C@H]1O[C@@H](O[C@@H]2OC=C(C(=O)O)[C@H]3CC[C@](C)(O)[C@@H]23)C(O)[C@@H](O)C1O (some centres not stated)	?
COc1ccc(Nc2cnc3ccc(-c4ccccc4)nn23)cc1	i
CC1=C2C(=O)C=C(CO)[C@@H]2[C@H]2OC(=O)[C@H](C)[C@@H]2[C@@H](O)C1	i
COCCCNC(=O)CCc1nnc2n(Cc3ccc(Cl)cc3)c(=O)c3ccccc3n12	i
CSc1ccc(CCNC(=O)c2cc3n(n2)CC(C)(C(=O)NC2CCCCC2)N(C)C3=O)cc1 (configuration not stated)	i
COC[C@]1(O)CCN(C(=O)c2oc(COc3ccccc3)cc2C)CC1(C)C	i
O=C(c1ccccc1F)N1CCC(N2CCCOC2=O)CC1	i
Nc1ccn([C@@H]2C(F)=C(CO)[C@@H](O)[C@H]2O)c(=O)n1	i
COc1ccc(-c2nnc3n(CCCOC(C)C)c(=O)c4ccccc4n23)cc1OC	i
C/C=C/C=C/C(=O)N1CC[C@]23c4ccccc4N[C@H]4N(C)c5cccc6c5[C@@]42CCN([C@H]6C2OC2(C)C)[C@H]13 (some centres not stated)	i
CCCn1c(=O)c2ccc(C(=O)NC(C)C)cc2n2c(SCC(=O)Nc3ccc(Cl)cc3)nnc12	i
